VDR inh: inhibitors of human vitamin D receptor; P11473; VDR-SRC2-3 peptide fluorescence polarization, 2 h; Potency, µM, without a hit: max response, negative = inhibition, most hits filed as inhibitors; actives 0.93% (n = 400,000); active means well fitted inhibition curve with a large enough effect; inconclusive means small, poorly fitted or top-dose-only effect, or another doubt; inactive means no such curve, though single readings can be large or run the other way; further: series mostly up to about 120 µM
Target sequence (P11473 whole entry, looked up): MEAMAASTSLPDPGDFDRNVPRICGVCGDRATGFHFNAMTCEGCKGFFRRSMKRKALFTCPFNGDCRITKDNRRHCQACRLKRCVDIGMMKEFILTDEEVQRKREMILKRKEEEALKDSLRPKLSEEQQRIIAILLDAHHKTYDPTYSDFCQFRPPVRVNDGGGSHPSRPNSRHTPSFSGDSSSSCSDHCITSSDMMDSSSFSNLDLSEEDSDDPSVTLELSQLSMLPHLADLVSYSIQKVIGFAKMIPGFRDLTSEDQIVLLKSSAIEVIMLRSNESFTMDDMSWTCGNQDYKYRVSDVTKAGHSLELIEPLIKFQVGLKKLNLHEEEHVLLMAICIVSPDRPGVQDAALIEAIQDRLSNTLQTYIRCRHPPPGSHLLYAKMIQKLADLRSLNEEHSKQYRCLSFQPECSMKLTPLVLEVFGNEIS
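The screen uses fluorescence polarization to detect compounds that interfere with recruitment of the SRC2-3 coactivator peptide to VDR; plates are read after 2 h at room temperature.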
* hit, by the source's call; ? = inconclusive; & = joins results of further samples; [ ] = another dose, or the depositor's remark. On the % scale 0 is the no-effect control and ±100 the full control effect; potency means the concentration at half of the fitted maximal effect. Some of the compounds tested; the hit share may differ from the screen's.

SMILES	VDR inh
O=C(COC(=O)c1ccccc1OCc1ccc(F)cc1)NCC1CCCO1 (stereo not given)	1%
NC(=O)C1CCN(c2nc3c(S(=O)(=O)c4ccccc4)nnn3c3ccccc23)CC1	4%
Cc1ccc(OCC(=O)Nc2ccc3nc(SCc4ccccc4)sc3c2)cc1	5%
CCCCN(CCCC)C(=O)C1CCN(S(=O)(=O)c2cccc3nsnc23)CC1	-20%
CC1=NCCN1CCNC(=O)Nc1cc(C)cc(C)c1	3%
CC1CCN(c2nc(NCc3ccco3)nc(N)c2[N+](=O)[O-])CC1	6%
Cc1ccc(C)c(NC(=O)Cc2coc3cc4c(cc23)CCC4)c1	-5%
COC(=O)C1CCCCN1C(=O)c1ccc2oc(C(C)C)nc2c1 (stereo not given)	21%
O=C(CSc1nnc(Cn2c(=O)sc3ccccc32)n1-c1ccccc1)Nc1nccs1	-28%
O=C(O)CSc1nnc(-c2ccncc2)n1-c1ccc(Cl)cc1	6%
Cn1nnnc1SCCNC(=O)C1CCC(=O)N(CCc2cccc(F)c2)C1 (stereo not given)	?
COC(=O)COc1cccc(/C=N/NC(=O)CCSc2ccccc2)c1	?
O=C(Nc1ccc(N=Nc2ccccc2)cc1)c1ccc(Cl)cc1Cl	8%
C=CCN1C(=O)C(Cc2ccc(OCC)cc2)SC1=Nc1ccc(C(=O)O)cc1 (stereo not given)	-20%
CC(C)N1CCN(Cc2cccc(-c3ccco3)c2)CC1CCO (stereo not given)	-9%
CCC(=O)N(Cc1ccco1)c1nc(C(=O)Nc2ccc(Cl)cc2)c(C)s1	?
C#CCOCCOCCOCCNc1nc(N2CCN(C(=O)CCCCCCCCCCNC(=O)[C@H](CCCCN)n3cc(CCO)nn3)CC2)nc(N2CCN(C(=O)CCCCCCCCCCNC(=O)[C@H](CCCN=C(N)N)n3cc(C[C@@H](C)CC)nn3)CC2)n1	33%[activator]
Cc1cccc(-n2c(SCC(N)=O)nnc2-c2ccco2)c1	4%
CCOc1ccccc1CNC(=O)c1sc2ncccc2c1-n1cccc1	-2%
CCN(C(=O)COC(=O)c1n[nH]c2ccccc12)C1CCS(=O)(=O)C1 (stereo not given)	5%
CN(C)C(CNC(=O)c1ccc(S(=O)(=O)N(C)C)cc1)Cc1ccccc1 (stereo not given)	-17%
COc1cc([N+](=O)[O-])ccc1NC(=O)CN1C(=O)NC2(CCCCC2C)C1=O (stereo not given)	-5%
Cc1cccc(N(Cc2cc3ccccc3[nH]c2=O)C(=O)c2cccc(Cl)c2)c1	10%
O=C(Cc1nc2ccccc2[nH]1)c1ccc(Br)cc1	-27%
COc1ccc(Cc2c(C)nn(-c3nc(C)c(C(=O)Nc4ccc(C)cc4C)s3)c2C)cc1	9%
Cc1ccc(Cn2c(=O)n(Cc3ccccc3Cl)c(=O)c3ccccc32)cc1	6%
CCC(=O)N1CCc2cc(S(=O)(=O)CCC(=O)N3CCN(c4ccccc4F)CC3)ccc21	-10%&-23%
Cc1ccc(C)c(S(=O)(=O)N2CCCOC2CNC(=O)C(=O)NCCN2CCOCC2)c1 (stereo not given)	-3%
CC(=O)Nc1nc(COc2ccc3ccccc3c2)cs1	5%
COc1ccc(OC)c(C2C(C(=O)c3ccc(C)o3)=C(O)C(=O)N2CCN2CCOCC2)c1 (stereo not given)	0%
COc1cccc(CN(C(=O)COc2ccc(C)cc2)C2CCS(=O)(=O)C2)c1 (stereo not given)	-25%
O=C(O)C1C2CCC(O2)C1C(=O)NCc1ccccc1Br (stereo not given)	-7%
CC(C)(C)C(=O)NC1(C(F)(F)F)NC(=O)N(CCc2ccccc2)C1=O (stereo not given)	-4%
COc1ccccc1N1C(=S)NC2CS(=O)(=O)CC21 (stereo not given)	0%
O=[N+]([O-])c1ccc(O)c(/C=N/Nc2ccccc2Cl)c1	11%
C[C@H](C(=O)OCO/N=[N+](\[O-])N1CCCC1)c1cccc2ccccc12	-23%
COc1ccccc1C1CC(=O)Nc2c1c(=O)n(C)c(=O)n2C (stereo not given)	-9%
Cn1c(=O)c2nc(NCc3ccccc3)cnc2n(C)c1=O	-18%
Cc1ccc(Cl)cc1NC(=O)c1sc2nc(C)c(C)c(C)c2c1N	-20%
COc1cc(/C=C2/NC(=O)N(CC(=O)Nc3cccc(C)c3)C2=O)ccc1OCC(N)=O	?

16 compounds from above, sorted by SMILES length, ascending:
SMILES	VDR inh
CC(=O)Nc1nc(COc2ccc3ccccc3c2)cs1	5%
COc1ccccc1N1C(=S)NC2CS(=O)(=O)CC21 (stereo not given)	0%
O=C(O)C1C2CCC(O2)C1C(=O)NCc1ccccc1Br (stereo not given)	-7%
Cc1cccc(-n2c(SCC(N)=O)nnc2-c2ccco2)c1	4%
CCOc1ccccc1CNC(=O)c1sc2ncccc2c1-n1cccc1	-2%
COc1ccccc1C1CC(=O)Nc2c1c(=O)n(C)c(=O)n2C (stereo not given)	-9%
O=[N+]([O-])c1ccc(O)c(/C=N/Nc2ccccc2Cl)c1	11%
Cc1ccc(Cl)cc1NC(=O)c1sc2nc(C)c(C)c(C)c2c1N	-20%
Cc1ccc(Cn2c(=O)n(Cc3ccccc3Cl)c(=O)c3ccccc32)cc1	6%
CCN(C(=O)COC(=O)c1n[nH]c2ccccc12)C1CCS(=O)(=O)C1 (stereo not given)	5%
COc1cccc(CN(C(=O)COc2ccc(C)cc2)C2CCS(=O)(=O)C2)c1 (stereo not given)	-25%
Cc1cccc(N(Cc2cc3ccccc3[nH]c2=O)C(=O)c2cccc(Cl)c2)c1	10%
Cc1ccc(C)c(S(=O)(=O)N2CCCOC2CNC(=O)C(=O)NCCN2CCOCC2)c1 (stereo not given)	-3%
COc1cc(/C=C2/NC(=O)N(CC(=O)Nc3cccc(C)c3)C2=O)ccc1OCC(N)=O	?
COc1ccc(OC)c(C2C(C(=O)c3ccc(C)o3)=C(O)C(=O)N2CCN2CCOCC2)c1 (stereo not given)	0%
C#CCOCCOCCOCCNc1nc(N2CCN(C(=O)CCCCCCCCCCNC(=O)[C@H](CCCCN)n3cc(CCO)nn3)CC2)nc(N2CCN(C(=O)CCCCCCCCCCNC(=O)[C@H](CCCN=C(N)N)n3cc(C[C@@H](C)CC)nn3)CC2)n1	33%[activator]

The results go on.
SMILES	VDR inh
CN(c1ccccc1)S(=O)(=O)c1cccc(NC(=O)COc2cccc([N+](=O)[O-])c2)c1	-5%
COCCSc1nnc(NC(=O)Cc2cccs2)s1	19%
Cc1ccc(C(=O)NC2CCN(Cc3ccccc3)CC2)cc1S(=O)(=O)N1CCOCC1	-9%
COc1ccc([N+](=O)[O-])cc1NS(=O)(=O)c1cc(C(=O)NCc2cccnc2)ccc1Cl	-15%
O=C(CCc1ccccc1Cl)Nc1ccc(S(=O)(=O)Nc2nccs2)cc1	-1%
Cc1c(Cl)cccc1NC(=S)N(C)CCC#N	0%
CC(=O)Nc1ccc2nc(NC(=O)COc3ccccc3C)sc2c1	-7%
CCC(C(=O)O)n1c(C(F)(F)F)nc2ccccc21 (stereo not given)	11%
CCOc1ccc(S(=O)(=O)N2CCC(C(=O)NCc3ccccn3)CC2)cc1	-13%
CCCC(=O)N1CCc2cc(-c3nc(N)sc3C)ccc21	0%
Cc1cccc(-n2c(O)c(C=NCc3ccccn3)c3ccccc3c2=O)c1	1%
Cc1c(C(=O)N(Cc2ccccc2F)C2CCS(=O)(=O)C2)oc2ccc(F)cc12 (stereo not given)	15%
Nc1cc(=O)[nH]c(=S)n1-c1ccccc1	3%
COc1ccc(-n2c(=O)c3ccccc3n(CC(=O)Nc3cc(C)on3)c2=O)cc1OC	-21%
COc1ccc(C(=O)N2CCC(N3CCN(c4ccccc4)CC3)CC2)cc1OC	-16%
Cc1ccccc1OCc1nnc(SCC(=O)O)n1Cc1ccccc1	6%
Cn1c(=O)c2c(SCC(N)=O)nc(CC(C)(C)C)nc2n(C)c1=O	-9%
CCOCCCNC(=O)c1cnc2sc(N3CCCCCC3)nn2c1=O	4%
Cc1cnc(C(=O)OCC(=O)N2CCc3ccccc3C2)cn1	-8%
Cc1ccc(Cl)cc1NC(=O)Nc1cccs1	-4%
COC(=O)Nc1ccc(S(=O)(=O)N2CCN(CCN3C(=O)C4C5C=CC(C5)C4C3=O)CC2)cc1 (stereo not given)	6%
COc1ccc(C2=NOC(C)(c3nnc(-c4ccc(F)cc4)o3)C2)cc1 (stereo not given)	-10%
NC(=O)C1(N2CCCCC2)CCN(C2CC(=O)NC2=O)CC1 (stereo not given)	15%
CCc1ccc(NC(=O)c2ccnc(C(C)(C)C)c2)cc1	-2%
CCOC(=O)C1=C(C)OC(N)=C(C#N)C1c1cc(OC)c2c(c1)OCO2 (stereo not given)	-2%
CN(CC(=O)Nc1ccccc1Br)C(=O)CNC(=O)Cc1cccc2ccccc12	1%
COCCn1c(CCC(=O)O)ccc1-c1cccs1	13%
Cc1cccc(-c2ncc(CN3CCN(C4CCCC4)C(CCO)C3)cn2)c1 (stereo not given)	13%
CC(C)c1ccc(Nc2nnc(SCC(=O)Nc3ncc(S(=O)(=O)c4ccc([N+](=O)[O-])cc4)s3)s2)cc1	-17%
Cc1ccc(C)c(NC(=O)c2ccc3c(c2)N(Cc2ccc(F)cc2)C(=O)CS3=O)c1 (stereo not given)	9%
Cc1ccc(Cc2c(C)nc3nc(SCC(=O)NC4CCC(C)CC4)nn3c2C)cc1 (stereo not given)	?
CCOc1ccccc1-c1noc(CSc2nnc(-c3ccccc3)n2-c2ccc(F)cc2)n1	8%
COc1ccc(/C=C(/NC(=O)c2ccc(OC)c(OC)c2)C(=O)NCCCn2ccnc2)cc1	-23%
Cc1ccc(/C=C/C(=O)NCCCc2ccccc2)cc1	3%
CCOc1ccccc1OCCCC(=O)NNC(=O)c1nn(C)c(=O)c2ccccc12	-19%
CCOC(=O)C(NC(=O)CC(C)C)(Nc1cc(C)on1)C(F)(F)F (stereo not given)	-4%
CCc1nnc(NS(=O)(=O)c2ccc(NC(=O)/C=C/c3ccc(OC)cc3OC)cc2)s1	-1%
CC(C)c1nc2sc3c(c2c(=O)n1N)CC(C)(C)OC3	-7%
CCCCN(C(=O)c1ccc(N(C)S(=O)(=O)c2ccc(C)cc2)cc1)c1c(N)n(CCCC)c(=O)[nH]c1=O	15%
COC(=O)c1sc(NC(=O)c2csc3c2CCCC3)nc1C	-2%
O=C(c1ccc(F)cc1F)N1CCCN(c2nc(-c3ccccc3)ns2)CC1	7%
O=C(Nc1cccc(S(=O)(=O)NC2=NCCC2)c1)c1ccc(=O)[nH]c1	-10%
O=C(O)CN1CCN(Cc2ccccc2)C1=O	1%
COc1ccc(C(=O)N[C@H](C(=O)OCc2cc(=O)oc3cc(C)ccc23)C(C)C)cc1	-2%
COc1cc2ccc(=O)oc2c(O)c1O	-19%
Cc1ccccc1N=Nc1c(C)[nH]n(C(N)=S)c1=O	-6%
Cc1cc(C)c2c(n1)SCC(=O)N2CC(=O)Nc1ccccc1C	22%
CC(C)(C)c1ccc(C(=O)NCc2nnc(SCC(=O)NC3CCCCC3)o2)cc1	-15%
O=C(CCCn1c(=O)[nH]c2ccsc2c1=O)N1CCN(c2ccc(Cl)cc2)CC1	6%
CCOC(=O)c1c(O)cc(C)[nH]c1=O	-23%

(continued)
SMILES	VDR inh
CC1(C)S[C@@H]2[C@H](NC(=O)[C@H](N)c3ccc(O)cc3)C(=O)N2[C@H]1C(=O)O	-8%
CCC(=O)Nc1nc(-c2ccccc2)ns1	-4%
O=C(NCC(c1cccs1)S(=O)(=O)c1cccs1)c1ccccc1 (stereo not given)	12%
CCOc1ccc(NC(=O)COC(=O)c2ccc3c(c2)OCO3)cc1	2%
COc1cc(/C=C/C(=O)OCC(=O)NNC(=O)c2cc(Cl)ccc2OC)ccc1O	2%
CC1CCc2c(sc3ncnc(SCC(=O)N(C)C4CCS(=O)(=O)C4)c23)C1 (stereo not given)	-6%
COc1cc(OC)cc(N2CC(C)(C)C2=O)c1	-24%
COC(=O)c1cc(S(=O)(=O)N2CCN(c3cccc(OC)c3)CC2)cn1C	11%
COc1ccccc1C(=O)NC(=O)CSc1ccc(C)c(C)c1	-1%
O=C1CN(C(=O)COC(=O)C2CCN(S(=O)(=O)c3ccccc3C(F)(F)F)CC2)c2ccccc2N1	-15%
COc1ccc(C(=O)N2CCN(S(=O)(=O)c3ccc4c(c3)OCCO4)CC2)cc1OC	-1%
Cc1cccc(-n2c(Cc3ccccc3)nnc2SCc2ccc([N+](=O)[O-])cc2)c1	-8%
O=C(NN1C(=O)c2ccccc2NC1c1ccccn1)c1ccc(Br)cc1 (stereo not given)	8%
CCOC(=O)COc1cc(C)c(Cl)cc1C(=O)c1ccn2nc(-c3ccc(OC)cc3)cc2n1	13%
Cc1cnc(C(=O)OCC(=O)Nc2ccc(Cl)cc2)cn1	-19%
c1cc2ccc3ccc(CN4CCOCC4)c4ccc(c1)c2c34	-9%
O=c1oc2ccccc2c(NCCc2ccccc2)c1[N+](=O)[O-]	-18%
C[Si](C)(C)O[Si](C)(C)C	5%
CCCCNC(=O)Nc1cnn(CC)c1C(N)=O	8%
Cc1cccc(N2CCN(S(=O)(=O)c3ccc(F)c(C(=O)Nc4ccc(C(C)C)cc4)c3)CC2)c1C	-3%
COc1cc(O)c(C(=O)c2ccccc2)cc1S(=O)(=O)O	3%
Cc1cccc2cc(C#N)c(NCCNS(=O)(=O)c3ccc4c(c3)OCCO4)nc12	-15%
Cc1ccc(N=Cc2c(O)n(-c3nccs3)c(=O)c3ccccc23)cc1	1%
O=C(O)c1cccc(NC(=O)c2cccc(S(=O)(=O)N3CCc4ccccc43)c2)c1	-2%
CCN1CCN(C(=O)CCc2nnc3ccc(N4CCC5(CC4)OCCO5)nn23)CC1	-8%
CCc1ccc(NC(=O)c2ccc(Cn3cc([N+](=O)[O-])cn3)cc2)cc1	1%

Source: PubChem BioAssay (National Center for Advancing Translational Sciences (NCATS))
